# Screening results as filed in PubChem.
# NS1 inh – blocks influenza NS1 protein function; S. cerevisiae slowed by influenza A NS1, growth recovery by OD600; 270,000 tested, 0.4% active; Potency, µM (doses to about 46.1 µM), for the others: at the highest dose activity, positive = more growth; also: actives are rising curves; nearly all actives have a fitted effect of over 50% in size
#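 Read-out: OD600 growth recovery of NS1-expressing budding yeast. Cells grown overnight at 30C in -URA glucose medium, washed, resuspended and diluted 1:100 in 2% galactose assay medium, pH 6.0. Same strain lacking NS1 served as positive control.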
# SARS PLP yeast – SARS-CoV PLP inhibition in yeast; S. cerevisiae expressing SARS-CoV PLpro, growth rescue; control for the full effect not named in the record; Potency, µM (titrated, usually from 32.9 µM), for inactives: at the top dose activity, positive = growth rescue; 330,000 tested, 0.19% active; also: 0% is about no effect; nearly all actives have a fitted effect of over 55% in size; growth read by luminescence after 48 h
# Cruzain inh noDet – cruzain (T. cruzi) inhibition without detergent | purified cruzain, Z-FR-AMC fluorescence, no detergent | Potency, µM, for the others: max response, negative = inhibition, hits mostly inhibitors | 200,000 tested, 2.3% active; active = well fitted curve in the direction sought with a large enough effect; inconclusive = small, poorly fitted or top-dose-only effect, or another doubt; inactive = no such curve, though single readings can be large; an effect the other way counts as inactive or inconclusive;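 also: plate controls were enzyme without inhibitor for no effect and buffer without enzyme for full effect; nearly all actives have a fitted effect of over 40% in size; top concentration of the series not given in the record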
# Target sequence (P25779 123-467 limits assumed): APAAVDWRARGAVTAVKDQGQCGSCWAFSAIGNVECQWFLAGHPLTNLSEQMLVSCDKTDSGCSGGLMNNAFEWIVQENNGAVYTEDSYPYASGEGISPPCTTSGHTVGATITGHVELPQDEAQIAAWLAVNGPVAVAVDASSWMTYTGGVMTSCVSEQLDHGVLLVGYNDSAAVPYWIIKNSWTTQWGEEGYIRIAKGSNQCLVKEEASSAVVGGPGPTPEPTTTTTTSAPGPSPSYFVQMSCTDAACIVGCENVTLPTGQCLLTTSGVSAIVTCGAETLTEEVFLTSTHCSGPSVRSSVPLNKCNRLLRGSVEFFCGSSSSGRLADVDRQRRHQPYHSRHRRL
#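 Purified cruzain at 1.5 nM, pre-incubated 15 min with compound at room temperature in 100 mM sodium acetate pH 5.5, 5 mM DTT, 0.00005% Triton X-100. Reaction started with 2 uM Z-FR-AMC; AMC fluorescence increase over 60 s gives rate.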
# RE007 growth inh – less growth of the S. pombe RE007 Vpr strain; S. pombe RE007 Vpr strain, BacTiter-Glo ATP luminescence, 24 h; control for the full effect not named in the record; Potency, µM (doses to about 92.2 µM), without a hit: at the top dose activity change, negative = less growth; 360,000 tested, 0.21% active; AID 651644; active = well fitted falling curve with a large enough effect; inconclusive = small, poorly fitted or top-dose-only effect; inactive = no such curve, though single readings can be large or run the other way;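 also: % is scaled to controls: 0 for no effect and ±100 for the full control effect; nearly all actives have a fitted effect of over 50% in size; the assay follows cell death caused by Vpr and the record does not say whether a fall means rescue or toxicity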
#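 Fission yeast RE007 carrying one integrated HIV-1 vpr copy, seeded at OD 0.01 in PMG+AL medium with 23 nL pinned compound. Grown 24 h at 30 degrees; viability read by BacTiter-Glo luminescence after 5 min.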
# StopGo reporter – lowers the luciferase signal of an FMDV 2A StopGo reporter. human cells with a luciferase reporter of 2A StopGo recoding; control for the full effect not named in the record. Potency, µM (highest dose often 57.9 µM), for the others: top-dose signal change, negative = less light. 410,000 tested, 1.2% active. AID 1159524; active = well fitted falling curve with a large enough effect; inconclusive = small, poorly fitted or top-dose-only effect; inactive = no such curve, though single readings can be large or run the other way; tested in HEK293T cells; also: % is scaled to controls: 0 for no effect and ±100 for the full control effect; nearly all actives have a fitted effect of over 45% in size; luciferase light after 4 h
# LASV entry inh – Lassa virus entry inhibition. Lassa virus pseudotype entry inhibition, cell reporter; control for the full effect not named in the record. Potency, µM (highest dose often 37.9 µM), for the others: top-dose activity change, negative = inhibition, most hits filed as inhibitors. 300,000 tested, 1.2% active; active means well fitted inhibition curve with a large enough effect; inconclusive means small, poorly fitted or top-dose-only effect, or effect the other way; inactive means flat fitted curve, though single readings scatter; tested in HEK293 cells; also: % is scaled to controls: 0 for no effect and ±100 for the full control effect; nearly all actives have a fitted effect of over 50% in size; luciferase read-out
# Cruzain Triton – inhibitors of Trypanosoma cruzi cruzain with detergent; purified cruzain, Z-FR-AMC fluorescence, 0.01% Triton; Potency, µM, for the others: max response, negative = inhibition, hits mostly inhibitors; 200,000 tested, 0.43% active; AID 1478; active = well fitted curve in the direction sought with a large enough effect; inconclusive = small, poorly fitted or top-dose-only effect, or another doubt; inactive = no such curve, though single readings can be large; an effect the other way counts as inactive or inconclusive;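 also: plate controls were neutral wells for no effect and buffer without enzyme for full effect; nearly all actives have a fitted effect of over 40% in size; top concentration of the series not given in the record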
#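 Cruzain (1.5 nM) preincubated 15 min at RT with compound in 100 mM sodium acetate pH 5.5, 5 mM DTT, 0.01% Triton X-100. Reaction started with 2 uM Z-FR-AMC; AMC fluorescence (ex 360/em 450 nm) change over 60 s gave rate.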
# MARV entry inh – blocks Marburg virus binding to or entry into cells | Marburg virus pseudotyped entry inhibition, cell reporter; control for the full effect not named in the record; about a third of the inactives were read at about 46 µM | Potency, µM (titrated, usually from 37.8 µM), for the others: top-dose activity change, negative = inhibition, most hits filed as inhibitors | 300,000 tested, 1.8% active | AID 540276; active = well fitted inhibition curve with a large enough effect; inconclusive = small, poorly fitted or top-dose-only effect, or effect the other way; inactive = flat fitted curve, though single readings scatter; tested in HEK293 cells; about a fifth of its hits are not listed in these tables; also: % is scaled to controls: 0 for no effect and ±100 for the full control effect; luciferase read-out
# * hit, by the source's call; ? = inconclusive; . = not tested or not shown; & = joins results of further samples; [ ] = another dose, or the depositor's remark. Unless noted, calls follow the shape of the dose curve; as a rule, active means well fitted rising curve with a large enough effect; inconclusive means small, poorly fitted or top-dose-only effect; inactive means no such curve, though single readings can be large or run the other way. Potency is read from the fitted curve at half-maximal effect.
SMILES,NS1 inh,SARS PLP yeast,Cruzain inh noDet,RE007 growth inh,StopGo reporter,LASV entry inh,Cruzain Triton,MARV entry inh
CCC1(c2ccc(Cl)cc2)NC(=O)N(CC(=O)NC2CCCC(C)C2C)C1=O (stereo unspecified),.,-2%,.,-28%,-14%,-23%,.,?
O=C(CSc1nnc(-c2cccnc2)n1Cc1ccccc1)N1CCOCC1,-5%,?,3%,0%,5%,4%,2.4%,21%
O=C(CCCCl)Nc1c2c(nn1-c1ccccc1)CSC2,-6%,4%,.,9%,29%,.,.,.
CCOC(=O)C1CCCN(C(=O)CSc2nccn2C)C1 (stereo unspecified),6%,-5%,2%,19%,-2%,3%,-0.5%,-3%
CCC(C(=O)Nc1ccc(C)c(Cl)c1)n1c(=O)c(-c2ccccc2NC(C)=O)nc2ccccc21 (stereo unspecified),.,.,11%,.,?,19%[46.1 µM],-2.3%,20%[46.1 µM]
CCOc1ccc(NC(=S)c2ccncc2)cc1,-6%,-31%,6%,-23%,-9%,1%,-3.2%,?
CCCCn1c(N)c(N(CCOC)C(=O)c2ccc(N3CCCC3)c([N+](=O)[O-])c2)c(=O)[nH]c1=O,.,-3%,.,-11%,0%,?,.,7%
Cc1ccc(C)c(NC(=O)CNC(=O)N2CC(=O)Nc3ccccc32)c1,4%,0%,.,9%,-1%,4%[46.1 µM],.,-3%[46.1 µM]
Cc1cccc(C(=O)Nc2ccccc2SCC(=O)Nc2ccc(C)c(Cl)c2)c1,-1%,-25%,-4%,-5%,1%,?,-5.2%,?
CCCOc1ccc(-c2csc3nc[nH]c(=O)c23)cc1,-35%,2%,.,5%,35%[activator],.,.,.
O=C(Nc1ncnc2sc3c(c12)CCCCC3)c1ccccc1,-5%,-10%,-14%,22%[3.69 µM],-1%,-1%,0.3%,-17%
Cc1ccc(S(=O)(=O)N2CCC[C@H]2C(=O)Nc2ccccc2Cl)cc1,.,-3%,.,-9%,21%,0%[46.1 µM],.,?
O=C(NCCNC(=O)c1ccccn1)c1ccc(F)cc1,-8%,-3%,.,-10%,12%,-6%,.,-23%[46.1 µM]
COC(=O)c1ccccc1CC1Cc2cc3c(cc2C1=O)CCC3 (stereo unspecified),.,.,.,-4%,26%,?,.,?
CSc1ncccc1C(=O)Nc1nc2c(C)cccc2s1,-9%,8%,9%,-14%,0%,-12%,-1.1%,29%
CC1CCCCC1NC(=O)c1cn(C)c2ccc(S(=O)(=O)N3CCOCC3)cc2c1=O (stereo unspecified),3%,-2%,.,-4%,12%,-19%[46.1 µM],.,19%[46.1 µM]
Cc1nn(C)c(C(=O)N/N=C/c2cccnc2)c1Cl,13%,-1%,.,1%,-7%,20%[46.1 µM],.,-3%[46.1 µM]
CCN1C(C(=O)c2ccccc2)=C(Nc2ccccc2C)c2ccccc2S1(=O)=O,?,9%,?,-10%,?,-14%,-6.6%,?
CCOn1c(=O)c(-c2ccc(OC)cc2)[n+]([O-])c2ccccc21,-56%,?,-8%,-15%,0%,3%,-3.3%,1%
COc1cccc(Nc2nc(NCCO)c3ccccc3n2)c1,-6%,-10%,-29%,0%,?,-23%,?,?
O=C(CCc1ccccc1)Nc1nnc(-c2ccc3c(c2)CCCC3)o1,-2%,-5%,-24%,-1%,2%,.,1.2%,.
CCOC(=O)C1=C(C)NC(C)=C(C(=O)OCC)C1C(=O)OCC(=O)N1CCOCC1,.,2%,.,-1%,-3%,10%,.,1%
O=C(CCN1CCN(c2ccccc2)CC1)Nc1cccc(Br)c1,-5%,-1%,.,2%,0%,.,.,.
COc1cc(/C=C/C(=O)NC(C)C)ccc1OCc1ccccc1,12%,?,12%,5%,0%,?,-4.6%,?
NC(=O)c1sc2nc(-c3ccco3)ccc2c1N,-45%,-9%,1%,-1%,27%,-5%,-12%,22%&22%

# (next part)
SMILES,NS1 inh,SARS PLP yeast,Cruzain inh noDet,RE007 growth inh,StopGo reporter,LASV entry inh,Cruzain Triton,MARV entry inh
CN(C(=O)CSCC(=O)O)C1CCCCC1,1%,4%,11%,-1%,-26%,1%,-3.8%,?
COC(=O)Nc1ccc(S(=O)(=O)NC2CCCCC2)cc1,2%,-8%,.,14%,4%,-2%[46.1 µM],.,?
CC(C)c1ccc(NC(=O)C2C3C=CC4(O3)C2C(=O)N(CCN2CCOCC2)C4C(=O)NC2CCCCC2)cc1 (stereo unspecified),12%,0%,.,-9%,-9%,.,.,13%[46.1 µM]
O=C(O)/C=C/C(=O)Nc1cccc2c1-c1ccccc1C2=O,.,.,.,-2%,1%,-16%,.,-20%
CCCCn1c(-c2csc3c2CCC(C)C3)n[nH]c1=S (stereo unspecified),-96%,-31%,-5%,-15%,-16%,15%,-9.9%,-2%
Cc1cc(C)c(OCCOCCn2c(-c3ccc(Cl)cc3)nc3ccccc3c2=O)c(C)c1,.,.,-10%,.,8%,?,-1.6%,12%[46.1 µM]
COc1cccc(NC(=S)N/N=C2/CCCCc3ccccc32)c1,?,-36%,?,2%,48%[activator],.,-4.4%,-1%
CN(C(=O)c1ccc(=O)[nH]c1)C1(C(=O)NC2CCCCC2)CCCCC1,-2%,2%,0%,5%,2%,-13%,2.0%,12%
CN1CCN(NC(=O)C23CC4CC(CC(C4)C2)C3)CC1,-8%,26%,-7%,0%,-11%,.,-0.7%,0%
C=CCNC(=O)CN1C(=O)NC(C)(c2ccc(OC)cc2)C1=O (stereo unspecified),14%,4%,.,9%,4%,23%,.,4%[46.1 µM]
CC(C)C(NS(=O)(=O)c1ccc2c(c1)oc(=O)n2C)C(=O)N1CCN(C2CCCCC2)CC1 (stereo unspecified),4%,0%,-12%,-16%,-18%,.,-6.2%,0%
CCOC(=O)N/N=C\c1ccc(C)s1,8%,-19%,6%,6%,21%,4%,-0.2%,27%
CC(=O)OCCN1C(=O)c2cccnc2C1=O,0%,-3%,-13%,4%,-16%,-1%,0.1%,?
CCCCn1c(=O)c(CCC(=O)OCC(=O)Nc2cc(Cl)ccc2OC)nc2ccccc21,-5%,-14%,-12%,-18%,-24%,-5%,-8.5%,-6%
COc1cc(NS(=O)(=O)c2ccc(NC(=O)COc3ccc(Cl)cc3Cl)cc2)nc(OC)n1,.,.,?,.,19%,-2%[46.1 µM],-18%,?
COc1ccc(OCC(=O)Nc2ccccc2OC)cc1,-36%,-3%,-7%,-11%,10%,2%,-1.3%,?
CC(=O)c1ccc(NC2=NCCCS2)cc1,1%,-1%,.,-22%,40%[activator],?,.,18%[46.1 µM]
COc1ccc(N2C(=O)CC(N3CCN(C(=O)c4ccco4)CC3)C2=O)cc1 (stereo unspecified),0%,7%,.,1%,13%,-1%,.,10%
CNc1oc(-c2cccs2)nc1S(=O)(=O)c1ccccc1,-1%,1%,.,-5%,16%,.,.,1%[46.1 µM]
Cc1ccc(NC(=O)C2CC=CCC2C(=O)N2CCCCC2)cc1 (stereo unspecified),-6%,8%,20%,1%,-6%,5%,6.8%,7%
CC(C)(C)NS(=O)(=O)c1ccc(NC(=O)NC2CCCCC2)cc1,1%,-9%,5%,8%,52%[activator],?,0.0%,11%
CC(C)(C)C1CCc2c(C(=O)NNC(=O)CCC(=O)O)csc2C1 (stereo unspecified),2%,-11%,?,7%,-19%,0%,-5.0%,-3%
CCOC(=O)c1ccc(NC(=O)CCc2c(C)nc3nc[nH]n3c2=O)cc1,.,.,1%,.,13%,-23%[46.1 µM],-0.2%,-3%[46.1 µM]
O=[N+]([O-])c1cc(Cl)ccc1N1CCCC1,1%,1%,.,-15%,-18%,-4%[46.1 µM],.,-12%[46.1 µM]
CS(=O)(=O)c1ccccc1C(=O)NC1CCCc2ccccc21 (stereo unspecified),11%,1%,.,7%,4%,3%[46.1 µM],.,1%[46.1 µM]
CC(C)Oc1ccc(C(=O)Nc2cc(=O)n(C)c(=O)n2C)cc1,0%,1%,-6%,-5%,22%,.,-2.1%,.
CCc1nc(SCC(=O)Nc2c(C)nn(C)c2C)c2cnn(-c3ccccc3)c2n1,9%,3%,-7%,.,.,.,-1.4%,-1%
CCOC(=O)c1[nH]c2ccc(F)cc2c1NC(=O)Nc1ccccc1OC,5%,1%,7.9µM*,0%,-12%,-14%,1.4%,?

# A draw from above in order of molecular weight, falling:
SMILES,NS1 inh,SARS PLP yeast,Cruzain inh noDet,RE007 growth inh,StopGo reporter,LASV entry inh,Cruzain Triton,MARV entry inh
CCOC(=O)c1[nH]c2ccc(F)cc2c1NC(=O)Nc1ccccc1OC,5%,1%,7.9µM*,0%,-12%,-14%,1.4%,?
CN(C(=O)c1ccc(=O)[nH]c1)C1(C(=O)NC2CCCCC2)CCCCC1,-2%,2%,0%,5%,2%,-13%,2.0%,12%
CC(=O)c1ccc(NC2=NCCCS2)cc1,1%,-1%,.,-22%,40%[activator],?,.,18%[46.1 µM]

# Looked up above.
# Result for Cc1ccc(NC(=O)C2CC=CCC2C(=O)N2CCCCC2)cc1 (stereo unspecified) under LASV entry inh: 5%
# Result for CC(C)(C)C1CCc2c(C(=O)NNC(=O)CCC(=O)O)csc2C1 (stereo unspecified) under SARS PLP yeast: -11%

# Compound profiles, as listed above.
# CC(=O)c1ccc(NC2=NCCCS2)cc1 reads NS1 inh: 1%; SARS PLP yeast: -1%; Cruzain inh noDet: .; RE007 growth inh: -22%; StopGo reporter: 40%[activator]; LASV entry inh: ?; Cruzain Triton: .; MARV entry inh: 18%[46.1 µM]
# CC(=O)OCCN1C(=O)c2cccnc2C1=O reads NS1 inh: 0%; SARS PLP yeast: -3%; Cruzain inh noDet: -13%; RE007 growth inh: 4%; StopGo reporter: -16%; LASV entry inh: -1%; Cruzain Triton: 0.1%; MARV entry inh: ?
# CCOC(=O)c1ccc(NC(=O)CCc2c(C)nc3nc[nH]n3c2=O)cc1 reads NS1 inh: .; SARS PLP yeast: .; Cruzain inh noDet: 1%; RE007 growth inh: .; StopGo reporter: 13%; LASV entry inh: -23%[46.1 µM]; Cruzain Triton: -0.2%; MARV entry inh: -3%[46.1 µM]

# Rows were taken by chance; any-hit rate near 4.7%.
